Vaccinia Venus: vaccinia inhibition (Venus reporter) | Vaccinia virus Venus reporter expression, fluorescence | Potency, µM (titrated, usually from 36.5 µM), for the others: top-dose activity change, negative = inhibition, hits mostly inhibitors | 330,000 compounds, 0.46% hits; active means well fitted inhibition curve with a large enough effect; inconclusive means small, poorly fitted or top-dose-only effect; inactive means no such curve, though single readings can be large or run the other way; tested in A549 cells; note: nearly all actives have a fitted effect of over 30% in size; inactives centre near -10
VACV mCherry inh: inhibitors of vaccinia virus infection (mCherry reporter signal); 310,000 compounds, 0.63% hits; AID 720579; Vaccinia virus mCherry reporter infection, fluorescence; about a quarter of the inactives have no number; Potency, µM (series often up to 36.5 µM), for the others: at the top dose activity change, negative = inhibition, actives largely listed as inhibitors; active = well fitted inhibition curve with a large enough effect; inconclusive = small, poorly fitted or top-dose-only effect; inactive = no such curve, though single readings can be large or run the other way; tested in A549 cells; note: nearly all actives have a fitted effect of over 35% in size; inactives centre near -10
The depositor's hits bear a star; i = inactive; ? = inconclusive; . = no result given; [ ] = remark or other dose. % is set by controls: 0 for no effect and ±100 for the full control effect; potency is the fitted concentration of half-maximal effect.

cpd | structure | Vaccinia Venus | VACV mCherry inh
1 | O=C(c1cc2ccccc2oc1=O)N(Cc1cccc(Br)c1)C1CCS(=O)(=O)C1 (stereo not drawn) | 11% | -9%
2 | O=C1CSc2ccc(C(=O)N3CCCCC3)cc2N1 | -9% | i
3 | COc1ccc(N2CCN(C(=O)CSc3nc4cc(OC)c(OC)cc4cc3C#N)CC2)cc1 | -15% | ?
4 | Cc1cc(N2CCOCC2)nc2ccc(NC(=O)CCC(=O)N3CCN(c4ccccc4)CC3)cc12 | -5% | ?
5 | Cc1noc(C)c1C(=O)Nc1ccc(-c2nnc3n2CCCCC3)cc1 | -6% | -11%
6 | Cc1[nH]c2ccccc2c1C1(O)C(=O)N(Cc2ccccc2)c2ccc(Br)cc21 (stereo not drawn) | -5% | 1%
7 | C[C@H]1CN([C@@H](C)CO)C(=O)c2cc(Br)cnc2O[C@@H]1CN(C)S(=O)(=O)c1ccccc1 | -13% | i
8 | O=C(NCc1ccc(F)cc1)C(=O)NCC1OCCN1S(=O)(=O)c1cc(F)ccc1F (stereo not drawn) | -19% | i
9 | Cc1ccc2nc(NC(=O)CCn3cccc3)sc2c1 | -24% | -13%
10 | CC(=O)Nc1ccc(S(=O)(=O)N(C)CC(=O)OCCOc2cccc(C)c2)cc1 | -1% | -8%
11 | O=C(N/N=C/C(Cl)=C/c1ccc([N+](=O)[O-])cc1)C(=O)Nc1ccccc1C(=O)O | -3% | -22%
12 | O=C(Nc1ccccn1)C1CCN(S(=O)(=O)c2cccs2)CC1 | -10% | -14%
13 | Cc1nn(Cc2ccccc2Cl)c(C)c1C(=O)NCC(c1cccs1)N1CCOCC1 (stereo not drawn) | -5% | 10%
14 | CC(=O)c1coc2ccc(OCCN3CCCCC3)cc12 | 10% | 0%
15 | Cc1cccc(N2CCN(C(=O)c3noc4c3CCCCC4)CC2)c1C | -8% | i
16 | Cc1c(NC(=O)CCC(=O)N2CCOCC2)c(=O)n(-c2ccccc2)n1C | -11% | -17%
17 | CCOc1ccc(NC(=O)CN(C)C(=O)CSCc2cccc(C)c2)cc1OCC | -27% | -2%
18 | CCC(=NCCc1ccccc1)C1=C(O)CCC1=O | -16% | .
19 | Cc1ccc(C(=O)/C=C/c2cc(Br)cc(Br)c2O)o1 | 155%[activator] | -11%
20 | CC(C)NC(=O)C(=O)NCCCN1CCOCC1 | 9% | 4%
21 | CC(=O)c1ccc(S(=O)(=O)N2CCN(CC#N)CC2)cc1 | 5% | -14%
22 | CSCCC(C(=O)Nc1c(C)cccc1C)N1CCN(c2ccc(F)cc2)CC1 (stereo not drawn) | -2% | 10%
23 | O=C(NCCCc1ccccc1)c1c(O)nc2sccn2c1=O | -8% | -18%
24 | CCOC(=O)CCc1c(C)c2c(C)nn(-c3ccccc3)c2[nH]c1=O | -4% | i
25 | N=c1c(C(=O)NCCN2CCOCC2)cc2c(=O)n3ccccc3nc2n1CCc1ccccc1 | -4% | -9%
26 | Cc1ccc(NC(=O)CSCC(=O)NCCc2ccccn2)c(C)c1 | -9% | 1%
27 | O=C(Nc1ccc(Oc2cccnc2)cc1)c1cccc([N+](=O)[O-])c1 | -12% | 0%
28 | Cc1ccc(S(=O)(=O)N(c2nc(N(C)C)nc(N(C)C)n2)n2cnnc2)cc1 | -4% | -17%
29 | CN(Cc1ccccc1)C(=O)c1c[nH]c2ccc(S(=O)(=O)N3CCOCC3)cc2c1=O | 5% | i
30 | COCCNC(=O)COc1ccc(Br)cc1Cl | 1% | .

Copied from above: entries 8 to 30
cpd | structure | Vaccinia Venus | VACV mCherry inh
8 | O=C(NCc1ccc(F)cc1)C(=O)NCC1OCCN1S(=O)(=O)c1cc(F)ccc1F (stereo not drawn) | -19% | i
9 | Cc1ccc2nc(NC(=O)CCn3cccc3)sc2c1 | -24% | -13%
10 | CC(=O)Nc1ccc(S(=O)(=O)N(C)CC(=O)OCCOc2cccc(C)c2)cc1 | -1% | -8%
11 | O=C(N/N=C/C(Cl)=C/c1ccc([N+](=O)[O-])cc1)C(=O)Nc1ccccc1C(=O)O | -3% | -22%
12 | O=C(Nc1ccccn1)C1CCN(S(=O)(=O)c2cccs2)CC1 | -10% | -14%
13 | Cc1nn(Cc2ccccc2Cl)c(C)c1C(=O)NCC(c1cccs1)N1CCOCC1 (stereo not drawn) | -5% | 10%
14 | CC(=O)c1coc2ccc(OCCN3CCCCC3)cc12 | 10% | 0%
15 | Cc1cccc(N2CCN(C(=O)c3noc4c3CCCCC4)CC2)c1C | -8% | i
16 | Cc1c(NC(=O)CCC(=O)N2CCOCC2)c(=O)n(-c2ccccc2)n1C | -11% | -17%
17 | CCOc1ccc(NC(=O)CN(C)C(=O)CSCc2cccc(C)c2)cc1OCC | -27% | -2%
18 | CCC(=NCCc1ccccc1)C1=C(O)CCC1=O | -16% | .
19 | Cc1ccc(C(=O)/C=C/c2cc(Br)cc(Br)c2O)o1 | 155%[activator] | -11%
20 | CC(C)NC(=O)C(=O)NCCCN1CCOCC1 | 9% | 4%
21 | CC(=O)c1ccc(S(=O)(=O)N2CCN(CC#N)CC2)cc1 | 5% | -14%
22 | CSCCC(C(=O)Nc1c(C)cccc1C)N1CCN(c2ccc(F)cc2)CC1 (stereo not drawn) | -2% | 10%
23 | O=C(NCCCc1ccccc1)c1c(O)nc2sccn2c1=O | -8% | -18%
24 | CCOC(=O)CCc1c(C)c2c(C)nn(-c3ccccc3)c2[nH]c1=O | -4% | i
25 | N=c1c(C(=O)NCCN2CCOCC2)cc2c(=O)n3ccccc3nc2n1CCc1ccccc1 | -4% | -9%
26 | Cc1ccc(NC(=O)CSCC(=O)NCCc2ccccn2)c(C)c1 | -9% | 1%
27 | O=C(Nc1ccc(Oc2cccnc2)cc1)c1cccc([N+](=O)[O-])c1 | -12% | 0%
28 | Cc1ccc(S(=O)(=O)N(c2nc(N(C)C)nc(N(C)C)n2)n2cnnc2)cc1 | -4% | -17%
29 | CN(Cc1ccccc1)C(=O)c1c[nH]c2ccc(S(=O)(=O)N3CCOCC3)cc2c1=O | 5% | i
30 | COCCNC(=O)COc1ccc(Br)cc1Cl | 1% | .

Further results
cpd | structure | Vaccinia Venus | VACV mCherry inh
31 | CCCCOCCCNC(=O)C[C@@H]1C[C@@]2(C(=O)OCC)CCC=C2N(Cc2ccc(Cl)cc2Cl)C1=O | -21% | -23%
32 | CCN(Cc1ccccc1)C(=O)c1cc(S(=O)(=O)N2CCOCC2)ccc1N1CCCC1 | -9% | i
33 | Cc1cccc(OCC(=O)Nc2ccc(N3CCN(C(=O)c4ccccc4)CC3)cc2)c1 | -21% | -1%
34 | CCc1nc2c(c(=O)c3ccccc3n2C)c(=O)n1C1CCCCCC1 | ? | -11%
35 | C=CCN(C(=O)c1csnn1)C(C(=O)NC1CCCCC1)c1ccc(F)cc1 (stereo not drawn) | -6% | 0%
36 | CCC(C)(C)NC(=O)C(c1ccc(OC)cc1)N(C(=O)CCC(=O)Nc1cc(C)on1)c1ccc2c(c1)OCO2 (stereo not drawn) | -15% | -23%
37 | CC(NC(=O)c1ccc(F)cc1)C1CC2CCC1C2 (stereo not drawn) | -6% | 0%
38 | CCCOc1ccc(C2C(C(=O)OC)=CN(CCOC)C=C2C(=O)OC)cc1 | -22% | i[1.46 µM]
39 | O=C(NCc1cccc(C(F)(F)F)c1)c1ccc2nc([C@H]3C[C@H](O)[C@@H](CO)O3)[nH]c2c1 | -2% | i
40 | CCOC(=O)c1ccccc1NC(=O)CSc1ncc(CO)n1Cc1ccc(C)cc1 | 6% | -6%
41 | O=C(NCc1ccccc1)C(c1cccnc1)N(C(=O)c1ccccn1)c1cccc(F)c1 (stereo not drawn) | -19% | -3%
42 | C[C@H](NC(=O)c1nc[nH]c1C(=O)N[C@@H](CCCCNC(=O)OC(C)(C)C)C(=O)OC(C)(C)C)C(=O)OC(C)(C)C | ? | ?
43 | COc1ccccc1NC(=O)Cc1nnc(SCC(=O)c2ccc(F)cc2)n1C | -10% | -15%
44 | COc1cc(NC(=O)c2cc(-n3cnnc3)ccc2Cl)cc(OC)c1 | -18% | .
45 | O=C1CCC(=O)N1OCCOc1ccc2c(c1)CCC2 | -6% | .
46 | CCOC(=O)C1(CCc2ccccc2)CCN(C(=O)[C@@H]2C[C@@H](C)NC(=S)N2)CC1 | -13% | -5%
47 | O=C(O)CCC(=O)Nc1cccc(C(=O)Nc2ccc(Br)cc2)c1 | -7% | -4%
48 | Cc1nn(C)cc1C(C(=O)NC1CCCCC1)N(C(=O)Cc1cccs1)c1ccc(F)cc1 (stereo not drawn) | -9% | 1%
49 | COC(=O)C1=C(c2cccc(C#N)c2)C[C@@H]2CC[C@H]1N2C(=O)N1CCCCC1 | -6% | -10%
50 | O=C1C=C(NCCNc2c(F)c(F)c(CO)c(F)c2F)CCC1 | 4% | .
51 | O=C(NCc1ccccc1)c1cc[n+](CC(=O)c2cccs2)cc1 | 5% | -24%
52 | O=C(NCc1ccc2c(c1)OCO2)c1ccc2snnc2c1 | -20% | i
53 | O=C(COc1ccccc1F)OCC(=O)c1ccc([N+](=O)[O-])cc1 | 1% | i
54 | CCN(Cc1nc(-c2cccc(C)c2)no1)S(=O)(=O)c1ccc(C)cc1 | -14% | -15%
55 | O=C(CS(=O)CC(=O)N(CC(=O)NC1CCCC1)C1CCCCC1)Nc1ccc(F)cc1 (stereo not drawn) | -5% | -18%
56 | Cc1nc2c(OCc3ccc(Cl)cc3Cl)cccn2c1N(C)CC1CC1 | ? | ?
57 | COC(=O)c1cccc(NC(=S)N2CCOCC2)c1 | -8% | 2%
58 | C=CCc1c(C)[nH]c(=S)c(C#N)c1C | 9% | .
59 | CCOC(=O)[C@]12CCC=C1N(Cc1ccccc1)C(=O)[C@H](CC(=O)NCCCCc1ccccc1)C2 | -11% | -22%
60 | CC(C)n1c(Nn2cnnc2)nc2ccccc21 | 3% | -6%
61 | CC(C)(C)NC(=O)C1CCN(c2nc3ccccc3nc2C(F)(F)F)CC1 | -4% | 1%
62 | O=C(O)CCC(=O)N1N=C(c2c(-c3ccccc3)c3cc(Cl)ccc3[nH]c2=O)CC1c1cccs1 (stereo not drawn) | -9% | i
63 | CC(=O)c1cccc(NC(=S)NC(=O)c2ccc(C)cc2)c1 | -6% | -7%
64 | CN(C)C(=O)CCc1ccc2c3c([nH]c2c1)[C@]1(C)[C@@H](C(=O)N2CCOCC2)C[C@H](CC(=O)NCCCn2ccnc2)C(=O)N1CC3 | 4% | -15%
65 | C=CCNC(=O)c1ccc2nccnc2c1 | -6% | -2%
66 | CCOc1ccc(-c2nc(CSCC(=O)N3CCN(c4cccc(OC)c4)CC3)c(C)o2)cc1 | ? | ?
67 | CC(C)c1c(C(=O)NCc2ccccn2)cnn1-c1nccc(-c2ccccc2F)n1 | -21% | -2%
68 | O=[N+]([O-])c1cc([N+](=O)[O-])c(Oc2ccccc2F)cc1NN1CCCCC1 | -11% | ?
69 | Cc1ccc(C(=O)Nc2ccc(OCc3cc(=O)n4c(C)csc4n3)cc2)cc1 | 12% | 14%
70 | S=c1[nH]nc(-c2ccc3ccccc3n2)o1 | -11% | .
71 | COCCCNC(=O)Cn1c(=O)n(-c2ccc(Cl)cc2)c(=O)c2c3c(sc21)CCCCC3 | 5% | -8%
72 | CCC(C)(C)NC(=O)C(c1ccncc1)N(C(=O)c1sc(C)nc1C)c1ccc(C)cc1 (stereo not drawn) | -13% | -20%
73 | CCC(C)C(NC(N)=O)C(=O)Nc1ccc(C)c(Cl)c1 (stereo not drawn) | -10% | -7%
74 | Cc1cc(C#N)c(C)n1-c1cc(C(F)(F)F)ccc1N1CCOCC1 | -24% | -25%
75 | COc1ccc(-c2cn3ccc4ccccc4c3n2)cc1 | 14% | 3%
76 | O=C(NCc1ccncc1)c1cn(-c2ccccc2)nc1-c1cccnc1 | -15% | i
77 | CCC(C)NC(=O)CSc1nc2c(sc3ccccc32)c(=O)n1CCc1ccccc1 (stereo not drawn) | -9% | -5%
78 | CC(O)(c1ccc(F)c(F)c1)c1nc(-c2ccncc2)cs1 (stereo not drawn) | -27% | -17%
79 | O=C(CN1C(=O)COc2ccc(S(=O)(=O)NC3CCCC3)cc21)Nc1ccc(Cl)cc1F | -10% | i
80 | Cc1c(F)cccc1NC(=O)C1CCCN1S(=O)(=O)c1ccc(F)cc1 (stereo not drawn) | 4% | -10%

In the list so far, these contain a tert-butyl group.
cpd | structure | Vaccinia Venus | VACV mCherry inh
42 | C[C@H](NC(=O)c1nc[nH]c1C(=O)N[C@@H](CCCCNC(=O)OC(C)(C)C)C(=O)OC(C)(C)C)C(=O)OC(C)(C)C | ? | ?
61 | CC(C)(C)NC(=O)C1CCN(c2nc3ccccc3nc2C(F)(F)F)CC1 | -4% | 1%

The results go on:
cpd | structure | Vaccinia Venus | VACV mCherry inh
81 | CCNC(=O)NC(=O)C(C)OC(=O)C1CCN(S(=O)(=O)c2ccccc2F)CC1 (stereo not drawn) | -8% | -12%
82 | CCN(C(=O)COc1ccccc1)c1nnc(-c2cccnc2)s1 | -18% | -16%
83 | CCn1c(=O)cc(SCC(=O)NCCCN2CCC(C)CC2)c2ccccc21 | -18% | -2%
84 | N/C(=N\OC(=O)CCCc1ccccc1)c1ccccc1Cl | -4% | i
85 | Nn1c(-c2cccc(Br)c2)n[nH]c1=S | -22% | .
86 | COc1ccc(CNC(=O)COC(=O)CN2C(=O)C3CCCCC3C2=O)cc1 (stereo not drawn) | -7% | -2%
87 | CC(C)CN(CCCNC(=O)CN1N=C(c2ccc(Cl)cc2)CCC1=O)CC(C)C | -10% | -4%
